Bioassay records: PubChem BioAssay, Broad Institute
FGF22 binding: shifts melting point of recombinant human FGF22; recombinant FGF22 thermal shift, SYPRO orange fluorescence; percent of sucrose octasulfate shift, DMSO zero; AID 651658; Q9HCT0; calls only at 9.99 µM; 1.5% of 340,000 active;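 active = melting point raised past a set limit in the mean and every replicate; three in four hits are not shown here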
Target sequence (Q9HCT0 whole entry, looked up): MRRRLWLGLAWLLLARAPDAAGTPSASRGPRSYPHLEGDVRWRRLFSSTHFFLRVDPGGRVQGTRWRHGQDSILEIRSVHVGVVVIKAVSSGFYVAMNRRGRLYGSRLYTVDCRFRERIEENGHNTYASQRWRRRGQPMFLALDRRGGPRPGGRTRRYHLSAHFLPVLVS
AF4-AF9 inh: MLL-AF4/AF9 protein interaction inhibition; inhibition, % at 10 µM; AlphaScreen, biotin-AF4 peptide binding to FLAG-AF9; 0.47% of 350,000 active; P42568; AID 651704;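 active = every replicate reaching a set inhibition limit, whatever the replicate mean, cut at about 25% in these data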;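 also: 0% = plate neutral control median and 100% = total signal loss; the record names both 10 and 1 µM as test concentration; the first replicate is given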
Target sequence (P42568 whole entry, looked up): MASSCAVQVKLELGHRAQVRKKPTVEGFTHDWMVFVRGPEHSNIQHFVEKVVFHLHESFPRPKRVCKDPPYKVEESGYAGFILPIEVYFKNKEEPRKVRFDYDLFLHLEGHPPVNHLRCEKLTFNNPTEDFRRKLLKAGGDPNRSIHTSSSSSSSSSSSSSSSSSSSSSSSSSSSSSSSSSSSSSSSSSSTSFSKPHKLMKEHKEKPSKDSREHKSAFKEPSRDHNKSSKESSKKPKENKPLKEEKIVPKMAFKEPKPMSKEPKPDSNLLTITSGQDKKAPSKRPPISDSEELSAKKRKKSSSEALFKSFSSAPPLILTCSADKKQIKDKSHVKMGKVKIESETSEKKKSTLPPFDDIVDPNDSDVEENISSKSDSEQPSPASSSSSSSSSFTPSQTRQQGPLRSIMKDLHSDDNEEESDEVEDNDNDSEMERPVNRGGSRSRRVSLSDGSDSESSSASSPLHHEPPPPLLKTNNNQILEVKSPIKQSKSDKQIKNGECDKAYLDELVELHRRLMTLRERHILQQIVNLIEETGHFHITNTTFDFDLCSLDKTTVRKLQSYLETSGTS
Starred values were filed as active, the others as inactive; i = inactive; & = joins results of further samples. A portion of the library; rates above refer to the full screens.

Every second line gives: FGF22 binding	AF4-AF9 inh
- C[C@@H]1CN([C@H](C)CO)C(=O)c2cc(NC(=O)Nc3cccc4ccccc34)ccc2O[C@@H](C)CCCCO[C@H]1CN(C)S(C)(=O)=O
 : i	1.0
- COc1ccccc1NC(=O)N(C)C[C@H]1Oc2ncc(Br)cc2C(=O)N([C@@H](C)CO)C[C@H]1C
 : i	-0.5
- C[C@H](CO)N1C[C@H](C)[C@H](CN(C)C(=O)Nc2ccc(F)cc2)Oc2ncc(-c3cc4ccccc4o3)cc2C1=O
 : i	-7.9
- N#Cc1ccc(-c2ccc([C@@H]3[C@H](CO)N4CCCCN(S(=O)(=O)c5ccccc5)C[C@@H]34)cc2)cc1
 : i	0.2
- CCC(=O)N[C@@H]1C=C[C@H](CC(=O)NCCN2CCCCC2)O[C@H]1CO
 : i	-0.5
- Cc1noc(C)c1S(=O)(=O)N(C)C[C@H]1OCCCC[C@@H](C)Oc2ccc(NC(=O)Nc3ccc(F)cc3)cc2C(=O)N([C@@H](C)CO)C[C@@H]1C
 : i	1.6
- C[C@@H]1CN([C@H](C)CO)C(=O)c2cccc(NC(=O)Nc3ccc4c(c3)OCO4)c2O[C@@H]1CN(C)Cc1ccccc1
 : i	5.9
- C[C@@H]1CCCCO[C@@H](CN(C)S(=O)(=O)c2ccc(F)cc2)[C@@H](C)CN([C@@H](C)CO)C(=O)c2cc(NS(=O)(=O)c3ccccc3)ccc2O1
 : i	1.7
- C[C@@H]1CN([C@H](C)CO)C(=O)Cc2cc(NC(=O)Nc3ccc(C(F)(F)F)cc3)ccc2O[C@H]1CN(C)Cc1ccc2c(c1)OCO2
 : i	1.2
- C[C@H]1CN([C@@H](C)CO)C(=O)CCCn2cc(nn2)CO[C@@H]1CN(C)Cc1ccc(C(=O)O)cc1
 : i	-2.3
- C[C@@H](NC(=O)C[C@H]1CC[C@H]2[C@@H](COC[C@H](O)CN2C)O1)c1ccccc1
 : i	-0.9
- Cc1noc(C)c1S(=O)(=O)Nc1ccc2c(c1)C(=O)N([C@H](C)CO)C[C@H](C)[C@H](CN(C)CC1CC1)O2
 : i	-1.6
- C[C@@H]1CN([C@H](C)CO)C(=O)c2cccc(NS(=O)(=O)c3ccccc3)c2O[C@@H]1CN(C)Cc1ccncc1
 : i	-1.0
- C[C@H]1CN([C@@H](C)CO)C(=O)c2cc(NC(=O)C3CC3)ccc2O[C@@H]1CN(C)Cc1ccc(Oc2ccccc2)cc1
 : i	8.8
- COCC#Cc1ccc2c(c1)O[C@H](CN(C)C(=O)C1CCOCC1)[C@@H](C)CN([C@@H](C)CO)S2(=O)=O
 : i	-1.2

(cont.)
Every second line gives: FGF22 binding	AF4-AF9 inh
- C[C@H](CO)N1C[C@H](C)[C@@H](CN(C)Cc2cccnc2)Oc2ncc(C#Cc3cccnc3)cc2C1=O
 : i	0.3
- O=C(CCN1CCCCC1)NCC[C@@H]1CC[C@@H](NC(=O)C2CC2)[C@H](CO)O1
 : i	-4.3
- O=C(Nc1ccc(C(F)(F)F)cc1)N[C@@H]1CC[C@H](CC(=O)N2CCCCC2)O[C@H]1CO
 : i	-3.3
- O=C(c1cccnc1)N1CCCCN2[C@H](CO)[C@@H](c3ccc(C#Cc4cccnc4)cc3)[C@H]2C1
 : i	-4.5
- CCCNC(=O)N(C)C[C@@H]1Oc2cc(C#Cc3cccc(F)c3)ccc2S(=O)(=O)N([C@@H](C)CO)C[C@@H]1C
 : i	-3.3
- C[C@@H]1CN([C@H](C)CO)C(=O)c2cc(NS(=O)(=O)c3ccc(Cl)cc3)ccc2O[C@H]1CN(C)CC1CCCCC1
 : i	0.1
- C[C@@H]1CN([C@@H](C)CO)C(=O)Cc2cc(NC(=O)NC3CCCCC3)ccc2O[C@@H]1CN(C)C(=O)Nc1ccc(C(F)(F)F)cc1
 : i	-0.6
- COc1ccccc1-c1ccc([C@H]2[C@H](CO)N3CCCCN(C(=O)c4ccncc4)C[C@@H]23)cc1
 : i	-1.3
- N#C[C@@H]1[C@@H](c2ccc(-c3cccnc3)cc2)[C@H](CO)N1C(=O)C1CCC1
 : i	1.0
- C[C@@H]1CN([C@H](C)CO)C(=O)Cc2cc(NS(=O)(=O)c3cccs3)ccc2O[C@@H]1CN(C)Cc1ccc(C(=O)O)cc1
 : i	-1.4
- O=C(C1CC1)N1CCCCN2[C@H](CO)[C@H](c3ccc(C#CC4(O)CCCC4)cc3)[C@@H]2C1
 : i	-3.7
- Cc1noc(C)c1S(=O)(=O)Nc1ccc2c(c1)C(=O)N([C@@H](C)CO)C[C@@H](C)[C@H](CN(C)Cc1ccccc1)OCCCC[C@H](C)O2
 : i	5.6
- COc1ccccc1NC(=O)N[C@H]1CC[C@@H](CCNS(=O)(=O)c2ccc(F)cc2)O[C@H]1CO
 : i	-0.8
- CO[C@@H]1CC[C@H]2CCOc3ccc(C#N)cc3C(=O)N(C)C[C@H](C)C(=O)N(C)C[C@@H]1O2
 : i	2.0
- C[C@H](CO)N1C[C@H](C)[C@@H](CN(C)S(=O)(=O)c2ccc(F)cc2)Oc2ccc(NC(=O)Nc3cccc4ccccc34)cc2CC1=O
 : i	0.7

Carrying on:
Every second line gives: FGF22 binding	AF4-AF9 inh
- C[C@H]1CN([C@@H](C)CO)C(=O)Cc2cc(NS(C)(=O)=O)ccc2O[C@@H]1CN(C)C
 : i	0.8
- O=C(CC1CC1)N1CC(=O)N2[C@H](C1)[C@H](c1ccc(-c3cccnc3)cc1)[C@@H]2CO
 : i	-0.1
- Cc1noc(C)c1S(=O)(=O)N(C)C[C@@H]1OCCCC[C@H](C)Oc2ccc(NC(=O)Nc3ccc(C(F)(F)F)cc3)cc2C(=O)N([C@H](C)CO)C[C@@H]1C
 : i	-1.1
- C[C@H]1CN([C@@H](C)CO)C(=O)c2cc(NC(=O)C3CC3)ccc2O[C@H]1CN(C)S(=O)(=O)c1ccc(F)cc1
 : i	-0.4
- C[C@H](CO)N1C[C@H](C)[C@@H](CN(C)C(=O)c2ccncc2)OCCCC[C@H](C)Oc2ccc(NS(=O)(=O)c3cccs3)cc2C1=O
 : i	-2.3
- C[C@@H]1CN([C@H](C)CO)C(=O)c2cccc(NC(=O)c3cnccn3)c2O[C@H]1CN(C)C(=O)NC1CCCCC1
 : i	-3.3
- COc1cccc(-c2ccc(CC[C@H]3O[C@H]4CC[C@@H](CO)O[C@H]4C[C@H]3NS(C)(=O)=O)cc2)c1
 : i	4.6
- O=S(=O)(c1ccccc1F)N1CCCCN2[C@H](C1)[C@H](c1ccc(-c3ccncc3)cc1)[C@@H]2CO
 : i	0.7
- O=S(=O)(N[C@@H]1CC[C@@H](CCn2cc(C3(O)CCCC3)nn2)O[C@@H]1CO)c1ccc(F)cc1
 : i	0.2
- C[C@@H]1CN([C@@H](C)CO)C(=O)c2cc(NS(=O)(=O)c3cn(C)cn3)ccc2O[C@@H]1CN(C)S(=O)(=O)c1ccc(F)cc1
 : i	-1.1
- Cc1ccc(S(=O)(=O)N(C)C[C@H]2Oc3ccc(NC(=O)CCCN(C)C)cc3CC(=O)N([C@@H](C)CO)C[C@@H]2C)cc1
 : i	-0.2
- C[C@H](CO)N1C[C@H](C)[C@@H](CN(C)Cc2ccncc2)Oc2ccc(NC(=O)Nc3ccc(C(F)(F)F)cc3)cc2C1=O
 : i	5.1
- O=C(c1ccncc1)N1CCCCN2[C@@H](CO)[C@H](c3ccc(C#Cc4ccccn4)cc3)[C@@H]2C1
 : i	-4.9
- C[C@H]1CN([C@@H](C)CO)C(=O)CCCn2cc(nn2)CO[C@H]1CN(C)Cc1cccc(C(F)(F)F)c1
 : i	-1.1
- CO[C@@H]1CN(C)C(=O)c2ccc(NC(=O)c3cccc(F)c3)cc2OC[C@@H](C)N(CC2CC2)C[C@@H]1C
 : i	-1.3

Shown as comma-separated lines: entries from further up
smiles,FGF22 binding,AF4-AF9 inh
CO[C@@H]1CN(C)C(=O)c2ccc(NC(=O)c3cccc(F)c3)cc2OC[C@@H](C)N(CC2CC2)C[C@@H]1C,i,-1.3
O=S(=O)(N[C@@H]1CC[C@@H](CCn2cc(C3(O)CCCC3)nn2)O[C@@H]1CO)c1ccc(F)cc1,i,0.2
COc1cccc(-c2ccc(CC[C@H]3O[C@H]4CC[C@@H](CO)O[C@H]4C[C@H]3NS(C)(=O)=O)cc2)c1,i,4.6

Carrying on.
Every second line gives: FGF22 binding	AF4-AF9 inh
- C[C@@H]1CCCCO[C@@H](CN(C)CC2CC2)[C@H](C)CN([C@H](C)CO)C(=O)c2cc(NS(=O)(=O)c3ccccc3)ccc2O1
 : i	4.9
- C[C@H]1CCCCO[C@@H](CN(C)C(=O)Nc2ccc(F)cc2)[C@@H](C)CN([C@@H](C)CO)C(=O)c2cc(NS(C)(=O)=O)ccc2O1
 : i	0.8
- O=C(Nc1cc(F)ccc1F)N1CC(=O)N2[C@H](CO)[C@H](c3ccc(C#CC4CCCCC4)cc3)[C@H]2C1
 : i	3.7
- C[C@@H]1CN([C@@H](C)CO)C(=O)c2cc(NC(=O)CCN3CCOCC3)ccc2O[C@H]1CN(C)Cc1ccc(C(=O)O)cc1
 : i	-0.7
- C[C@H]1CN([C@@H](C)CO)S(=O)(=O)c2ccc(C#CC3(O)CCCC3)cc2O[C@@H]1CN(C)C(=O)c1ccccc1
 : i	1.9
- CN1C(=O)c2cc(NC(=O)Cc3ccccc3)ccc2OC[C@@H]2O[C@@H](CC(=O)NCC3CC3)CC[C@H]21
 : i	-3.0
- C/C=C/c1ccc([C@H]2[C@@H](C#N)N(C(=O)c3cccnc3)[C@H]2CO)cc1
 : i	3.6
- C[C@H]1CN([C@@H](C)CO)C(=O)c2cccc(NC(=O)Nc3ccc4c(c3)OCO4)c2O[C@@H]1CN(C)S(=O)(=O)c1cccs1
 : i	2.7
- CC(C)NC(=O)Nc1ccc2c(c1)C(=O)N(C)[C@H]1CC[C@H](CC(=O)Nc3ccccc3Cl)O[C@@H]1CO2
 : i	-0.3
- CCC(=O)N1CC2(C1)[C@H](c1ccccc1)[C@@H](CO)N2CC1CC1
 : i	-3.0
- C[C@@H]1CCCCO[C@H](CN(C)S(=O)(=O)c2cn(C)cn2)[C@@H](C)CN([C@H](C)CO)C(=O)c2cc(NC(=O)C3CCCCC3)ccc2O1
 : i	4.6
- N#C[C@H]1[C@H](c2ccccc2-c2cccc(F)c2)[C@@H](CO)N1C(=O)Cc1cccnc1
 : i	-2.2
- C[C@H]1CN([C@@H](C)CO)C(=O)c2cc(C#CC3CCCCC3)cnc2O[C@@H]1CN(C)C(=O)C1CCCCC1
 : i	7.9
- C[C@@H]1CN([C@H](C)CO)C(=O)c2cc(NC(=O)Cc3ccccc3)ccc2O[C@@H](C)CCCCO[C@H]1CN(C)Cc1ccc(C(=O)O)cc1
 : i	0.5
- CN(C)CCCNC(=O)C[C@@H]1CC[C@H]2[C@@H](COc3ccc(NS(C)(=O)=O)cc3C(=O)N2C)O1
 : i	-1.6

Compound profiles (already shown).
C/C=C/c1ccc([C@H]2[C@@H](C#N)N(C(=O)c3cccnc3)[C@H]2CO)cc1 is listed with FGF22 binding = i; AF4-AF9 inh = 3.6
N#C[C@H]1[C@H](c2ccccc2-c2cccc(F)c2)[C@@H](CO)N1C(=O)Cc1cccnc1 is listed with FGF22 binding = i; AF4-AF9 inh = -2.2

Additional compounds follow.
Every second line gives: FGF22 binding	AF4-AF9 inh
- C[C@@H]1CN([C@@H](C)CO)C(=O)c2cc(NC(=O)Cc3cn(C)c4ccccc34)ccc2O[C@@H]1CN(C)C(=O)Nc1ccc2c(c1)OCO2
 : i	6.1
- C[C@@H]1CCCCO[C@H](CN(C)C(=O)Cc2ccccc2)[C@H](C)CN([C@H](C)CO)C(=O)c2cc(NC(=O)Nc3ccccc3)ccc2O1
 : i	0.7
- CN1C(=O)c2cc(NC(=O)C3CCCC3)ccc2OC[C@@H]2O[C@@H](CC(=O)NCCc3ccncc3)CC[C@H]21
 : i	2.6
- C[C@H](CO)N1C[C@H](C)[C@H](CN(C)Cc2ccc(Cl)c(Cl)c2)Oc2ccc(NC(=O)C3CCCCC3)cc2CC1=O
 : i	0.8
- CCCC#Cc1ccc(CC[C@H]2O[C@H]3CC[C@@H](CO)O[C@H]3C[C@H]2n2cc(C(C)(C)O)nn2)cc1
 : i	-0.1
- C[C@@H]1CN([C@H](C)CO)C(=O)c2cc(NS(C)(=O)=O)ccc2O[C@@H]1CN(C)Cc1ccc2c(c1)OCO2
 : i	-14
- C[C@@H]1CN([C@H](C)CO)C(=O)Cc2cc(NS(=O)(=O)c3ccc(F)cc3)ccc2O[C@@H]1CN(C)C(=O)NC1CCCCC1
 : i	-1.0
- C[C@@H]1CN([C@@H](C)CO)S(=O)(=O)c2ccc(-c3ccccc3)cc2O[C@H]1CN(C)CC1CCCC1
 : i	-0.5
- CCCNC(=O)N1[C@@H](C#N)[C@@H](c2ccc(C#Cc3ccc(F)cc3)cc2)[C@@H]1CO
 : i	0.1
- O=C(C[C@H]1CC[C@H]2[C@@H](COC[C@@H](O)CN2Cc2nccs2)O1)NCc1ccccc1F
 : i	-0.7
- COc1ccccc1-c1cnc2c(c1)C(=O)N([C@H](C)CO)C[C@H](C)[C@@H](CN(C)C(=O)CN(C)C)O2
 : i	-1.2
- CCC(=O)N[C@H]1CC[C@H](CC(=O)OC)O[C@@H]1CO
 : i	-0.2
- C[C@H]1CN([C@@H](C)CO)C(=O)CCCn2cc(nn2)CO[C@@H]1CN(C)C(=O)C1CC1
 : i	0.6&-4.4
- C[C@H]1CN([C@@H](C)CO)C(=O)c2cc(NC(=O)CCN3CCOCC3)ccc2O[C@@H]1CN(C)C(=O)Nc1ccccc1
 : i	-0.4
- C[C@H]1CN([C@@H](C)CO)C(=O)Cc2cc(NC(=O)Cn3cnnn3)ccc2O[C@H]1CN(C)S(=O)(=O)c1ccc(Cl)cc1
 : i	-1.3
- CCC(=O)N1[C@H](CO)[C@@H]2c3ccccc3N(C(=O)c3ccc4c(c3)OCO4)C[C@@H]21
 : i	-2.8
- C[C@H](CO)N1C[C@H](C)[C@@H](CN(C)CC2CCCCC2)Oc2ccc(NC(=O)CCCN(C)C)cc2C1=O
 : i	3.4
